# Sa ugtP lethal – compounds lethal to S. aureus RN4220 ugtP deletion mutant | OD600 growth, 16 h; some inactives read as strong as hits | growth inhibition, % (concentration not given with the values) | actives 0.54% (n = 330,000) | AID 1259309;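 active = z-score under -3 and OD600 up to 0.15 on both plates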;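 also: plate controls were untreated wells for no effect and antibiotic for full effect; wells of about 80 µL received 100 nL stock; the first replicate is given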
# Bead autofluor – compound fluorescence in toxin protease inhibitor counterscreen; fluorescence intensity (no concentration beside the values); actives 3.1% (n = 360,000); compound autofluorescence counterscreen, microsphere flow cytometry; active compounds read high;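 active = at least 3 SD above the mean of all compounds, about 16000 in these data; inconclusive = too few beads counted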;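 also: 100 nL of 1 mM stock went into each well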
# Sa RN4220 lethal – kills Staphylococcus aureus RN4220 | S. aureus RN4220 growth, OD600, 16 h | inhibition, % (test concentration not listed) | actives 0.33% (n = 330,000);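 active = z-score of -3 or lower and OD600 up to 0.18 on both plates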;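 also: plate controls were untreated cells for no effect and reference antibiotic for full effect; stock transfer was 100 nL into about 80 µL; one replicate is shown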
# PrP UTR inh – suppresses PrP 5' UTR mRNA reporter expression; cell-based PrP 5' UTR mRNA reporter, plate reader; inhibition, % (concentration not given with the values); actives 0.35% (n = 340,000); AID 488862;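 active = every replicate at 50% or more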;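 also: 0 = median of the neutral control wells; tested in H4 reporter cells; numbers are from one replicate; inactives centre near -14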
# BJeLR lethal – kills HRASV12-expressing BJeLR cells | actives 0.17% (n = 300,000) | AID 1554 | BJeLR (HRASV12) viability, CellTiter-Glo ATP luminescence, 48 h; reference of the scale not given here | inhibition, % (test concentration not listed);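 active = replicate mean above 50%; inconclusive = above 50% but judged a plate artefact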;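 also: 50 nL library stock added to about 25 µL; numbers are from one replicate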
# Mtb hypoxia inh – Mtb hypoxia fluorescent reporter inhibition | M. tuberculosis hypoxia-regulated fluorescent reporter, fluorescence | actives 0.1% (n = 300,000) | fluorescence inhibition, % (test concentration not listed);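 active = 35 to 45% if threefold the growth effect, above 45% if 1.5-fold the growth effect; inactive = the rest, general growth blockers included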;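 also: wells of about 50 µL received 100 nL stock; 0% = vehicle wells and 100% = reference inhibitor wells; whole bacteria with a GFP reporter of the hypoxia response; strong numbers were not always called active; many hits fall short of the cut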
# Mtb hypoxia inh growth – second read-out of Mtb hypoxia inh, no call of its own (marks repeat the call); growth inhibition, %; measured here: M. tuberculosis growth (absorbance);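 0% = vehicle and 100% = reference antibiotic; read after six days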
# The depositor's hits bear a star; ? = inconclusive; . = no result given; & = joins results of further samples.
SMILES,Sa ugtP lethal,Bead autofluor,Sa RN4220 lethal,PrP UTR inh,BJeLR lethal,Mtb hypoxia inh,Mtb hypoxia inh growth
CC(C)(C)C1CCc2c(C(=O)NNC(=O)CCC(=O)O)csc2C1 (stereo unspecified),17,2492,3.7,-21,-4,5,3
CNc1oc(-c2cccs2)nc1S(=O)(=O)c1ccccc1,3,4337,2.2,-16,-19,8,-1
CC(C)(C)NS(=O)(=O)c1ccc(NC(=O)NC2CCCCC2)cc1,4,16985*,12,10,5,3,3
Cc1ccc(NC(=O)C2CC=CCC2C(=O)N2CCCCC2)cc1 (stereo unspecified),-4,9687,1.3,-21,1,18,5
CC(=O)c1ccc(NC2=NCCCS2)cc1,4,4677,4.6,0,6,14,-1
COc1ccc(N2C(=O)CC(N3CCN(C(=O)c4ccco4)CC3)C2=O)cc1 (stereo unspecified),6,2099,0.9,-16,-1,-7,-6
CCC(=O)N=c1sc2c(C)cc(C)cc2n1CC(=O)OC,15,4739,15,-5,7,5,1
CCOC(=O)c1ccc(NC(=S)NN2CCN(C)CC2)cc1,7,2468,0.4,-21,8,-2,-5
O=C(C1CCCCC1)N1CCC(c2nc3c(nnn3Cc3ccccc3Cl)c(=O)[nH]2)CC1,-1,4482,28,-10,.,7,5
COc1ccc(S(=O)(=O)N(CC(C)C)C2CCS(=O)(=O)C2)cc1OC (stereo unspecified),4,3926,0.7,-37,3,7,0
S=C(Nc1ccccc1Oc1ccccc1)NC1CCCC1,-3,4095,3.5,-26,4,6,4
Cc1cc(C)n(-c2nc3c(c(=O)[nH]c(=O)n3C)n2CC(O)COc2ccc(Cl)cc2Cl)n1 (stereo unspecified),-2,4118,3.0,-8,25,-6,1
O=C(COC(=O)C1=COCCO1)Nc1ccc(Oc2ccccc2)cc1,-3,?,-0.4,0,0,3,-4
CC(C)c1ccc(C(=O)CN2C(=O)NC3(CCc4ccccc43)C2=O)cc1 (stereo unspecified),-7,3043,0.6,-16,.,-1,3
CC/C(=N\N1CCCCCC1)c1c(O)n(-c2ccc(C)cc2)c(=O)[nH]c1=O,3,2569,1.6,-24,-1,19,3
COc1ccc2c(C)cc(SCn3nnc4ccccc4c3=O)nc2c1,22,2401,3.6,-29,-8,-1,-4
O=C(NCc1cccnc1)c1cnc2ccccc2n1,7,4589,5.0,-20,5,6,3
O=C(Nc1ccccc1C(=O)NCCCN1CCOCC1)c1ccc(F)cc1,9,5804,1.5,-10,-12,-1,3
Cn1nc(C(F)(F)F)c(C(=O)Nc2ccc(F)cc2F)c1Sc1cccc(C(F)(F)F)c1,-7,10105,2.3,-27,-3,2,12
O=C(Nc1ccc(OC(F)(F)F)cc1)C1=NCCN1,9,11109,-1.8,-22,2,3,4
COc1cccc(CNc2nc3ccccc3n2CCN2CCCCC2)c1,-3,11720,1.1,-42,3,10,19
COc1cc(C=NNC(=O)c2cccc(C(=O)NN=Cc3ccc(O)c(OC)c3)n2)ccc1O,5,.,-4.5,.,.,-2,-8
CCNC(=O)N1c2ccc(OCC)cc2C(C)=CC1(C)C,5,3236,0.8,-6,6,10,4
CNCC(O)CN1CCN(c2ccccc2OC)CC1 (stereo unspecified),16,4407,8.1,8,-2,-11,-8
Cn1ncc2nc[nH]c(=O)c21,0,4480,-3.5,-7,4,6,-7
O=[N+]([O-])c1ccc(N2CCOCC2)cc1NCCCO,1,2738,3.3,-2,-5,7,14
O=[N+]([O-])c1cc(Cl)ccc1NCCc1ccccn1,-2,3805,1.3,-22,-9,9,-4
O=c1c(-c2ccccc2)c(O)nc2ccccn12,16,8907,5.3,1,-9,5,0
C=C(C)c1cccc(C(C)(C)NC(=O)N(C)C2CCN(C)CC2)c1,2,3548,3.7,-13,1,1,1
O=C1CC(c2cccs2)CC(O)=C1C=NCCN1CCNCC1 (stereo unspecified),1,11402,2.6,-42,4,7,12
COc1cc(C2c3c(-c4ccccc4)n[nH]c3C(=O)N2c2ccccc2)ccc1O (stereo unspecified),1,14449,0.7,-10,4,12,14
CCC1CCCCN1C(=O)CSc1nnc(CNC(=O)COc2ccc(Cl)cc2)o1 (stereo unspecified),7,3507,-1.9,-28,-18,.,.
O=C(COC(=O)c1nc(Cl)ccc1Cl)NCCc1ccccc1,2,4058,5.7,-8,-11,6,0
CC1=C(C)/C(=N/OC(=O)c2cccc([N+](=O)[O-])c2)C=CC1=O,.,8250,.,-9,-6,.,.
CC(C)CCC(CC(C)O)c1n[nH]c(=S)n1-c1ccccc1 (stereo unspecified),7,2102,5.6,-49,1,16,10
CCS(=O)(=O)N1Cc2ccccc2CC1C(=O)NCc1cccc(OC)c1 (stereo unspecified),2,5235,3.7,-2,-1,9,6
CCCNC(=O)c1c(C)cc(=O)oc1C,8,16085,-0.5,-15,6,6,9
Cc1ccc(/C=N/Nc2ccc3c(C(F)(F)F)cc(C(F)(F)F)nc3n2)cc1,.,2729,.,-14,4,.,.
Cc1ccc2c(c1)cc1c(=O)n(CC(=O)N(C)c3ccccc3)nc(C)n12,5,6128,4.1,-14,-5,5,-1
CC(=O)c1ccc(NS(=O)(=O)c2ccc3c(c2)N(C)CCO3)cc1,17,5365,2.8,-10,-7,-1,2
COC(=O)C1CCN(C(=O)/C=C/c2ccc3c(c2)OCO3)CC1,0,2911,1.5,-56,18,5,-6
O=C(c1ccc2c(=O)n(Cc3ccccc3)c(=S)[nH]c2c1)N1CCCC1,18,3610,-0.3,-13,0,-3,-5
Cc1nn(CCO)c(N)c1C1(O)C(=O)Nc2c(Cl)cc(Cl)cc21 (stereo unspecified),-5,2202,5.5,-47,-17,-3,13
O=C(Oc1ccc2ccc(=O)oc2c1)c1cccs1,8,2409,9.1,6,-2,10,11
CC(=O)N1CCC2(CC1)C(C#N)=C(N)OC1=C2C(=O)CC(C)(C)C1,-1,2957,2.8,-5,-15,-6,6
COC(=O)c1c(NC(=O)C(=O)N2CCCCC2)sc2c1CC(C)(C)OC2,2,5548,0.9,6,1,-2,1
CCCc1c(C(=O)Nc2cc(C)on2)cnn1-c1ccccc1,-3,3767,2.3,-29,6,-4,0
Cc1nc2ccccc2nc1OCC(=O)Nc1ccc(F)cc1,-3,4352,1.1,-8,3,-5,9
COc1ccc(NC(=O)Nc2cc3oc4ccccc4c3cc2OC)cc1,17,2494,-2.8,-31,6,1,2
C[C@]12C=CC(=O)C=C1CC[C@@H]1[C@@H]2[C@@H](O)C[C@@]2(C)[C@H]1CC[C@]2(O)C(=O)COC(=O)CCC(=O)O,.,5998,.,-10,-2,.,.
Cc1occc1C(=O)/C(C#N)=C/c1ccc(O)c(Br)c1,5,4511,0.3,-3,-10,-15,0
O=C(NC1CCCCC1)C1COc2ccccc2O1 (stereo unspecified),14,.,4.7,-18,6,.,.
CCOCC(=O)Nc1cc(C(=O)OC)ccc1C(=O)OC,2,4452,-4.3,-15,-10,.,.
O=[N+]([O-])c1ccc(-c2ccc(C=NNc3nc(N4CCCC4)nc(N4CCCC4)n3)o2)cc1,-9,.,-4.0,.,.,-12,4
O=c1c2ccccc2nc(COc2ccccc2)n1/N=C/c1ccco1,.,2485,.,-42,0,.,.
O=C(O)CCc1nc(-c2cccs2)no1,-11,2433,-16,-6,-8,1,11
O=C(O)CN1C2=NCCCN2c2ccccc21,9,3501,4.1,-16,-6,10,-7
O=C(COC(=O)[C@@H]1CC(O)CN1S(=O)(=O)c1ccc([N+](=O)[O-])cc1)NC12CC3CC(CC(C3)C1)C2 (stereo partly specified),-7,2198,3.4,-21,11,16,-1
O=C(Nc1ccc(F)cc1F)C1CCN(S(=O)(=O)c2cccnc2)CC1,7,4503,2.7,-44,-1,5,1
CCOc1ccc(Nc2cc(C)nc3c(C)cccc23)cc1,2,3358,-2.2,-9,20,6,6
# Further entries.
SMILES,Sa ugtP lethal,Bead autofluor,Sa RN4220 lethal,PrP UTR inh,BJeLR lethal,Mtb hypoxia inh,Mtb hypoxia inh growth
COCc1cc(C)nc(OCC(=O)NN=Cc2ccccc2)c1C#N,1,.,-0.7,.,.,0,7
Cc1cccc2nc(CSc3ncccc3C(=O)O)cn12,9,4353,3.4,-19,3,16,5
CCOc1ccc(NC(=O)N(c2ccccc2)c2ccccc2)cc1,13,5001,-0.6,-16,1,10,4
O=C(CN1CCN(c2ccccn2)CC1)NC(=O)NC1CCCCC1,8,2355,1.1,-14,0,.,.
COc1ccc(CC(=O)Nc2ccccc2C(C)=O)cc1S(=O)(=O)N1CCOCC1,-5,.,-2.9,-4,-6,-1,1
COc1ccc(NC(=O)C2CCOC2=O)cc1 (stereo unspecified),0,3550,0.6,-25,-17,-9,-6
CC(=O)C1=C(C)NC(SCC(=O)c2ccccc2)=C(C#N)C1CC(C)C (stereo unspecified),16,2890,5.6,-39,-3,2,7
Cc1cccc(C)c1OCC(=O)Nc1ccc(NC(=O)c2ccco2)cc1,9,4315,0.3,-11,13,19,12
CN(Cc1ccccc1)C(=O)COC(=O)Cc1ccc(Cl)cc1,7,3749,4.8,-19,.,14,13
COc1cccc(CN2CCN(Cc3cc(OC)c(OC)cc3OC)CC2)c1,5,3593,3.0,-6,5,3,2
Cc1ccc(-c2ccc(OC(=O)c3ccc(=O)[nH]c3)c(C)c2)cc1,11,3628,-3.6,.,-4,1,4
CC(C)N(Cc1nc(-c2ccccc2)no1)C(=O)CN1C(=O)c2ccccc2C1=O,1,9800,7.9,0,3,9,11
CNC(=O)c1cc(S(=O)(=O)NC2CCCCCC2)ccc1C,-3,4668,1.5,-7,-6,7,-3
CCOC(=O)Cn1nnc(-c2cccc(OC)c2)n1,9,8899,22,-2,1,12,7
COc1ccc(C)cc1CN1C(=O)c2ccccc2C1=O,5,3930,-0.2,-10,7,12,-1
COc1ccccc1N1CCN(CCN(C(=O)C2CCCCC2)c2ccccn2)CC1,1,6162&4942,4.6,-3&-60,0,9,15
C=CCOc1ccccc1/C=C/C(=O)O,-6,22958*,-0.1,5,-7,0,5

# Compounds shown so far that contain a halogen, in the order listed:
SMILES,Sa ugtP lethal,Bead autofluor,Sa RN4220 lethal,PrP UTR inh,BJeLR lethal,Mtb hypoxia inh,Mtb hypoxia inh growth
O=C(C1CCCCC1)N1CCC(c2nc3c(nnn3Cc3ccccc3Cl)c(=O)[nH]2)CC1,-1,4482,28,-10,.,7,5
Cc1cc(C)n(-c2nc3c(c(=O)[nH]c(=O)n3C)n2CC(O)COc2ccc(Cl)cc2Cl)n1 (stereo unspecified),-2,4118,3.0,-8,25,-6,1
O=C(Nc1ccccc1C(=O)NCCCN1CCOCC1)c1ccc(F)cc1,9,5804,1.5,-10,-12,-1,3
Cn1nc(C(F)(F)F)c(C(=O)Nc2ccc(F)cc2F)c1Sc1cccc(C(F)(F)F)c1,-7,10105,2.3,-27,-3,2,12
O=C(Nc1ccc(OC(F)(F)F)cc1)C1=NCCN1,9,11109,-1.8,-22,2,3,4
O=[N+]([O-])c1cc(Cl)ccc1NCCc1ccccn1,-2,3805,1.3,-22,-9,9,-4
CCC1CCCCN1C(=O)CSc1nnc(CNC(=O)COc2ccc(Cl)cc2)o1 (stereo unspecified),7,3507,-1.9,-28,-18,.,.
O=C(COC(=O)c1nc(Cl)ccc1Cl)NCCc1ccccc1,2,4058,5.7,-8,-11,6,0
Cc1ccc(/C=N/Nc2ccc3c(C(F)(F)F)cc(C(F)(F)F)nc3n2)cc1,.,2729,.,-14,4,.,.
Cc1nn(CCO)c(N)c1C1(O)C(=O)Nc2c(Cl)cc(Cl)cc21 (stereo unspecified),-5,2202,5.5,-47,-17,-3,13
Cc1nc2ccccc2nc1OCC(=O)Nc1ccc(F)cc1,-3,4352,1.1,-8,3,-5,9
Cc1occc1C(=O)/C(C#N)=C/c1ccc(O)c(Br)c1,5,4511,0.3,-3,-10,-15,0
O=C(Nc1ccc(F)cc1F)C1CCN(S(=O)(=O)c2cccnc2)CC1,7,4503,2.7,-44,-1,5,1
CN(Cc1ccccc1)C(=O)COC(=O)Cc1ccc(Cl)cc1,7,3749,4.8,-19,.,14,13

# Screens from PubChem BioAssay.
